# Assay outcomes (PubChem)
# Sa growth inh = blocks Staphylococcus aureus growth. S. aureus RN4220 growth, OD600, 20 h, 42 °C; stronger effect = lower value. hit rate 0.53% among 170,000. AID 720641. relative growth, % (test concentration not listed);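 active = growth at 42 °C up to 50% and 20 or more points under that at 30 °C, or under 10% at both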;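 note: 300 nL library stock went into each well; scaled to the means of positive and negative controls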
# GIV-Gai inh = blocks GIV peptide binding to rat Galpha-i3. P08753. Galpha-i3/FITC-GIV peptide fluorescence polarization, 90 min; stronger effect = lower value; scaled: aluminum fluoride 0%, vehicle 100%. percent of control (FP), % (concentration not given with the values). hit rate 0.42% among 210,000;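 active = replicate mean at 85% of control or lower, very high polarization wells dropped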;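 note: wells of about 15 µL received 100 nL stock; the first replicate is given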
# Target sequence (P08753 whole entry, looked up): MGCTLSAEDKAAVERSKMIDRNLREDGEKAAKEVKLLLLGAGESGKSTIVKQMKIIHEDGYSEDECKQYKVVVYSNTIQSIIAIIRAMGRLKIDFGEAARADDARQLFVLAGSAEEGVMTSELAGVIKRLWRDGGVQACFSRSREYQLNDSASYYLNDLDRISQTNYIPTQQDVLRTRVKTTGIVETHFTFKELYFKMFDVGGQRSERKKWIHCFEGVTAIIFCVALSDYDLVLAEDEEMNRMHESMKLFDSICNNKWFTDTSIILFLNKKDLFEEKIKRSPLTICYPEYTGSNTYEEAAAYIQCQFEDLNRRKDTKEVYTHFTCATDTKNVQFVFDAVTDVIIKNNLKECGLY
# HCMV NEC inh = inhibitors of HCMV UL50-UL53 nuclear egress complex interaction; HTRF UL50-UL53 interaction, normalized percent inhibition; inhibition, % (concentration not given with the values); hit rate 0.15% among 190,000; AID 1918969;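 active = both replicates at 50% or more, plus weaker picks with an unusually low signal ratio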;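 note: stock transfer was 100 nL into about 20 µL; 0% = negative control wells and 100% = wells with untagged competitor protein; inactives centre near -12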
# Sa growth inh second temp = second read-out of Sa growth inh, no call of its own (marks repeat the call); relative growth, %; measured here: growth at 30 °C;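 optical density after 20 h as mean of two plates; 100% = untreated growth and lower means inhibition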
# Active calls of the source: *; . = no result given; & = joins results of further samples.
[1] Cc1cc(I)ccc1NC(=O)Nc1ccccc1
[2] CCOC(=O)c1cnn2c1nc(Sc1cccc(OC)c1)c1ccccc12
[3] Cc1cccc(-c2nnc(SCN3C(=O)c4ccccc4C3=O)n2C)c1
[4] Cc1cccc(N2CCN(c3cc(C)nc4c(-c5ccc(Cl)cc5)c(C)nn34)CC2C)c1 (stereo not given)
[5] CC(C)NC(=O)C(C#N)(Cc1ccc(C#N)cc1)Cc1ccc(C#N)cc1
[6] COC(=O)c1ccc(CN(C(C)=O)c2ccccc2)o1
[7] COc1ccc(C2C=C(c3ccccc3)Nc3nc(NS(=O)(=O)c4ccccc4)nn32)cc1 (stereo not given)
[8] CCN1CCCc2cc(O)ccc21

screen / no.,1,2,3,4,5,6,7,8
HCMV NEC inh,-29.6,-32.6,-29.7,.,1.7,5.5,-89.8&-61.2,-5.2
Sa growth inh,119.0,106.8,91.1,105.0,96.3,102.2,86.2,73.8
Sa growth inh second temp,108.5,93.4,89.2,88.2,89.6,88.2,77.7,52.4
GIV-Gai inh,97.8,100.6,.,100.5,.,102.6,104.8&112.0,-9.7*

[9] Cc1cc(SCC(=O)N2CCCC2)n2c(nc3ccccc32)c1C#N
[10] CC(=O)N1CCN(S(=O)(=O)c2cccc(C(=O)OCc3cc(=O)n4cc(Br)ccc4n3)c2)CC1
[11] COc1ccc(N2CCN(S(=O)(=O)c3ccc(CC(C)C)cc3)CC2)cc1
[12] CCc1ccc(NC(=O)C2=CC=CN3CCS(=O)(=O)N=C23)cc1
[13] CCN(CC)S(=O)(=O)c1ccc2c(c1)N(CC(=O)N(C)Cc1ccccc1)C(=O)CO2
[14] CCC1CCCCN1C(=O)Cn1c(=O)oc2cc(S(=O)(=O)N3CCCCC3)ccc21 (stereo not given)
[15] Cc1ccc(NC(=O)N2CCN(c3cc(-c4noc(C)n4)ccc3C)CC2)c(C)c1
[16] CCCCS(=O)(=O)C1CCS(=O)(=O)C1 (stereo not given)

screen / no.,9,10,11,12,13,14,15,16
HCMV NEC inh,-15.7,-56.9,-0.3,-9.7,-1.3,-33.9,.,-18.7
Sa growth inh,77.2,89.0,97.8,112.2,94.5,90.8,98.5,105.5
Sa growth inh second temp,83.4,93.0,95.4,94.8,91.6,83.5,91.3,89.1
GIV-Gai inh,.,.,107.3,.,101.0,109.3,99.8,.

[17] Cn1c(SCc2cc(=O)n3ccsc3n2)nnc1-c1ccco1
[18] Cc1ccc(CNC(=O)CN2C(=O)CCn3nc(-c4ccccc4)cc32)cc1
[19] C/C(=N/NC(=O)Cc1cccs1)c1ccc(C)cc1
[20] Cn1nc(OCC(=O)NC(C)(C)C)cc1C(F)(F)F
[21] Cc1cc(Cl)ccc1NC(=O)CN1C(=O)C(=O)c2ccccc21
[22] COCCCN1CN=C(NS(=O)(=O)c2ccc(NC(C)=O)cc2)NC1
[23] Cc1c(Cl)cccc1NC(=O)N1CC(C)Sc2ccccc21 (stereo not given)
[24] CCCc1nnc2sc(-c3cc(CC(C)C)[nH]n3)nn12

screen / no.,17,18,19,20,21,22,23,24
HCMV NEC inh,2.5,.,-23.1,-3.2,-15.6,-2.4,.,-20.8
Sa growth inh,91.8,96.4,110.2,91.7,130.2,92.7,113.1,.
Sa growth inh second temp,98.1,84.7,93.0,90.6,81.1,94.7,81.0,.
GIV-Gai inh,101.2,100.3,105.0,101.2,106.4,102.7,100.5,103.0

# Another view of some results above:
no. | Structure | HCMV NEC inh | Sa growth inh | Sa growth inh second temp | GIV-Gai inh
18 | Cc1ccc(CNC(=O)CN2C(=O)CCn3nc(-c4ccccc4)cc32)cc1 | . | 96.4 | 84.7 | 100.3
19 | C/C(=N/NC(=O)Cc1cccs1)c1ccc(C)cc1 | -23.1 | 110.2 | 93.0 | 105.0
20 | Cn1nc(OCC(=O)NC(C)(C)C)cc1C(F)(F)F | -3.2 | 91.7 | 90.6 | 101.2
21 | Cc1cc(Cl)ccc1NC(=O)CN1C(=O)C(=O)c2ccccc21 | -15.6 | 130.2 | 81.1 | 106.4
22 | COCCCN1CN=C(NS(=O)(=O)c2ccc(NC(C)=O)cc2)NC1 | -2.4 | 92.7 | 94.7 | 102.7
23 | Cc1c(Cl)cccc1NC(=O)N1CC(C)Sc2ccccc21 (stereo not given) | . | 113.1 | 81.0 | 100.5

# New compounds follow:
[25] O=C(ON1C(=O)c2cccc3cccc(c23)C1=O)c1ccco1
[26] COc1ccc(C(=O)NCC(=O)OCc2cc(=O)n3nc(C4CCCCC4)sc3n2)cc1
[27] CC(C)(C)C1CCc2c(sc3nc(CCC(=O)NC4CCCC4)[nH]c(=O)c23)C1 (stereo not given)
[28] COc1ccc(NC(=O)c2sc(=S)[nH]c2N)cc1
[29] COC(=O)c1cccc(NC(=O)C2=Cc3cc(C)ccc3OC=C2)c1
[30] COc1ccc(OC)c(NC(=O)CN2C(=O)c3ccccc3S2(=O)=O)c1
[31] O=C(CSc1ncccn1)N1N=C(c2ccc(Cl)cc2)CC1c1ccco1 (stereo not given)
[32] Cc1ccc(S(=O)(=O)N(C)c2nc3ccccc3nc2Cl)cc1

screen / no.,25,26,27,28,29,30,31,32
HCMV NEC inh,-43.8,.,-13.0,-48.8,-11.0,-3.1&-11.2,-28.6,-32.8
Sa growth inh,58.0,95.4,.,54.7,.,.,81.6,110.6
Sa growth inh second temp,50.2,88.9,.,55.1,.,.,94.7,98.9
GIV-Gai inh,101.5,103.0,96.0,.,108.1,104.0&92.6,.,.

[33] COC(=O)c1sc(N)c(C(=O)OC)c1COC(=O)CN1CCCCCC1=O
[34] COC(=O)c1cc(=O)n(-c2cc(Cl)cc(Cl)c2)[nH]1
[35] Cc1nc(SCC(=O)Nc2ccc(C(=O)O)cc2)n[nH]1
[36] COC(=O)C1=CN(CCCN2CCCC2=O)C=C(C(=O)OC)C1c1ccccc1C(F)(F)F
[37] Cc1cc2nc3c(=O)n(C)c(=O)n(C)c3nc2cc1NC(=O)C(F)(F)F
[38] O=C(NC1CC1)c1cccc(Nc2ccc(-c3ccccc3)nn2)c1
[39] CN1CCN(S(=O)(=O)c2ccc(F)cc2)c2ccccc21
[40] Cc1cccc(-c2nc(C#N)c(N(C)C)o2)c1

screen / no.,33,34,35,36,37,38,39,40
HCMV NEC inh,-33.9,-27.6,2.0,-66.7,-49.3,-24.3,-14.7,-11.6
Sa growth inh,96.2,13.4*,104.2,96.2,99.2,.,.,111.6
Sa growth inh second temp,74.6,37.0*,93.1,79.8,90.5,.,.,93.5
GIV-Gai inh,.,109.2,99.0,105.1,115.5,107.2,106.0,108.1

[41] CSc1nc(C)cc(NC(N)=O)n1
[42] CC(C(=O)O)N1C(=O)c2cccc3cccc1c23 (stereo not given)
[43] Cc1ccc(Nc2nc(=O)[nH]nc2C)cc1C
[44] CCCN(Cc1nnc(-c2cccs2)o1)C(=O)C1COc2ccccc2O1 (stereo not given)
[45] O=S(=O)(NCCn1cnc2ccccc21)c1ccccc1Br
[46] O=C(CCC1N=C2c3ccccc3N=C(SCC(=O)NCCc3ccccc3)N2C1=O)NCc1ccc(F)cc1 (stereo not given)
[47] CCNC(=O)CSc1nnc(-c2cccc(C)c2)n1-c1ccc(OCC)cc1
[48] CCc1ccccc1NC(=O)Nc1cccs1

screen / no.,41,42,43,44,45,46,47,48
HCMV NEC inh,.,-44.2,-19.6,-20.3,-32.2,.,-10.9,-4.7
Sa growth inh,80.0,101.4,.,99.3,.,105.0,85.2,85.8
Sa growth inh second temp,79.0,98.8,.,85.5,.,93.6,90.9,80.5
GIV-Gai inh,107.2,103.4,97.1,.,101.7,101.1,.,106.5

[49] O=C(Nc1ccccc1C(=O)Nc1ccccn1)c1ccccc1
[50] Cc1ccc(-c2nc(N)n(C(=O)c3ccc(C(C)(C)C)cc3)n2)cc1
[51] Cc1cccc2c1cnn2C(=O)Nc1cccc(C(F)(F)F)c1
[52] Cn1ccc2cc(S(=O)(=O)N3CCN(C(=O)Nc4cc(F)ccc4F)CC3)ccc21
[53] CCOC(=O)C1=C(CSc2nc3cc(C(=O)OC)ccc3c(=O)n2Cc2ccco2)NC(=O)NC1
[54] Cc1noc2c1C(c1ccc(F)cc1)C1=C(CC(c3ccccc3O)CC1=O)N2 (stereo not given)
[55] CN(C)c1ccc(C(O)c2nc3ccccc3n2Cc2ccccc2)cc1 (stereo not given)
[56] O=C(/C=C/c1ccc(Br)cc1)Nn1c(-c2ccccc2F)nc2ccccc2c1=O

screen / no.,49,50,51,52,53,54,55,56
HCMV NEC inh,-13.1,-16.8,.,-4.4,-14.5,-9.3,-20.8,-17.0
Sa growth inh,93.3,.,96.9,.,91.3,.,120.6,.
Sa growth inh second temp,82.7,.,82.2,.,94.2,.,88.8,.
GIV-Gai inh,100.7,102.5,97.8,100.0,.,105.5,.,106.0

# Five entries picked at random from those above:
[51] Cc1cccc2c1cnn2C(=O)Nc1cccc(C(F)(F)F)c1
[53] CCOC(=O)C1=C(CSc2nc3cc(C(=O)OC)ccc3c(=O)n2Cc2ccco2)NC(=O)NC1
[55] CN(C)c1ccc(C(O)c2nc3ccccc3n2Cc2ccccc2)cc1 (stereo not given)
[49] O=C(Nc1ccccc1C(=O)Nc1ccccn1)c1ccccc1
[54] Cc1noc2c1C(c1ccc(F)cc1)C1=C(CC(c3ccccc3O)CC1=O)N2 (stereo not given)

screen / no.,51,53,55,49,54
HCMV NEC inh,.,-14.5,-20.8,-13.1,-9.3
Sa growth inh,96.9,91.3,120.6,93.3,.
Sa growth inh second temp,82.2,94.2,88.8,82.7,.
GIV-Gai inh,97.8,.,.,100.7,105.5

# New compounds follow
[57] Cc1ccc(NC(=O)Cn2c(=O)oc3cc(S(=O)(=O)N4CCCCCC4)ccc32)cc1F
[58] CCC(CO)N1CCn2c(nc3cccc(Cl)c32)C1 (stereo not given)
[59] Cc1cccc(OCC(=O)Oc2cccc(-n3cnnn3)c2)c1C
[60] N#C/C(C(=S)Nc1ccccc1)=C1/NN=C2CCCCCN21
[61] c1cc(CNCCN2CCOCC2)ccn1
[62] C=CCn1cc(F)c(=O)n(CC=C)c1=O
[63] COc1cc(OC)c(NC(=O)NCCCn2c(-c3ccc(F)cc3)nc3cccnc32)cc1Cl
[64] Cc1n[nH]c(=O)c(N)c1-c1cc(-c2ccc(Cl)c(Cl)c2)n[nH]1

screen / no.,57,58,59,60,61,62,63,64
HCMV NEC inh,-37.2,-23.0,-29.8,-6.9,13.1,-41.5,-9.7,-45.6
Sa growth inh,110.6,.,.,88.5,107.0,84.9,.,94.2
Sa growth inh second temp,79.5,.,.,89.0,99.5,107.2,.,88.8
GIV-Gai inh,106.8,101.1,101.4,.,.,106.5,104.0,101.5

[65] O=C(NCCO[N+](=O)[O-])c1cccnc1
[66] CC1CCC(=O)C(Sc2nc(C3CC3)cc(-c3cccs3)c2C#N)C1 (stereo not given)
[67] C/C(Nc1nc(-c2cc(C)n(CCc3ccccc3)c2C)cs1)=C(/C#N)C(N)=O
[68] O=C(Oc1ccc2c(c1)OCO2)C1COc2ccccc2O1 (stereo not given)
[69] CCCSc1nc(C)c(-c2csc(C(C#N)=C3CCCC3)n2)cc1C#N
[70] N#Cc1ccccc1COC(=O)c1cc[n+]([O-])cc1
[71] COc1ccccc1NC(=O)Cn1cnc(NC(=O)c2ccccc2)n1
[72] O=C(Cn1ncc2c1-c1ccccc1OC2)Nc1cc(-c2cccc(Cl)c2)no1

screen / no.,65,66,67,68,69,70,71,72
HCMV NEC inh,-41.3&-5.2&9.3&-27.8&-18.2,1.3,1.1,-13.4,.,-60.4,-19.6,-2.6
Sa growth inh,83.5&97.2,87.3,74.7,110.5,104.8,101.0,.,.
Sa growth inh second temp,87.6&94.8,96.9,67.9,102.6,96.4,95.3,.,.
GIV-Gai inh,101.8,.,.,.,119.7,.,110.6,98.5

# One compound at a time, from the list above. Order of values: HCMV NEC inh | Sa growth inh | Sa growth inh second temp | GIV-Gai inh
# Entry for CC1CCC(=O)C(Sc2nc(C3CC3)cc(-c3cccs3)c2C#N)C1 (stereo not given) = 1.3 | 87.3 | 96.9 | .
# Entry for O=C(Oc1ccc2c(c1)OCO2)C1COc2ccccc2O1 (stereo not given) = -13.4 | 110.5 | 102.6 | .

# More structures.
[73] CC(C)NC(=O)c1nc(-c2cccc(C(F)(F)F)c2)no1
[74] Cc1ccccc1COc1ccc(-c2nn[nH]n2)cc1
[75] CCOc1cc(C(=O)Nc2cccc(-c3nc4ccccc4o3)c2)cc(OCC)c1OCC
[76] Cn1c(N)c(C(=O)CN(Cc2ccccc2)Cc2ccccc2)c(=O)n(C)c1=O
[77] C=CC[C@H]1CC=C[C@H](c2ccccc2)N1
[78] O=C(NCC1COC2(CCCC2)O1)c1ccccc1 (stereo not given)
[79] CCCC(=O)Nc1ccc(C(=O)N2CCc3ccccc32)cc1
[80] CCn1c(SC)nnc1C1CCN(C(=O)N(c2ccccc2)c2ccccc2)CC1

screen / no.,73,74,75,76,77,78,79,80
HCMV NEC inh,-33.6,-11.6,-15.2,-6.1,-6.7,-12.5,-2.3,-3.9
Sa growth inh,105.0,83.8,93.2,80.6,85.8,104.5,105.6,92.7
Sa growth inh second temp,102.7,70.6,86.4,97.9,91.8,91.8,96.4,81.5
GIV-Gai inh,102.6,.,105.7,.,98.4,99.4,102.0,95.5

# Some values from the list.
# In HCMV NEC inh, entry 79 is entered as -2.3
# In HCMV NEC inh, entry 77 is entered as -6.7
# In Sa growth inh second temp, entry 75 is entered as 86.4
